Yeast UUG start: modulators of yeast start codon fidelity, primary screen, whole organism, S. cerevisiae, single point, plate reader. S. cerevisiae UUG-firefly luciferase reporter, luminescence/redox ratio. 0.13% of 350,000 active. AID 602363, 2012. activity score, % at 18.7 µM;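 active = replicate mean at a twofold rise or more, about +100% in these data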;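 note: firefly luciferase made from a UUG start codon reports start codon fidelity; reporter light over untreated wells divided by growth signal over untreated wells; some hits fall short of that in this replicate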
HIV Env fusion: inhibitors of HIV-1 Env-driven cell-cell fusion, primary screen, HeLa-JRFL effector, CEM21 target cells, luciferase; AID 651610, 2012; inhibition, % at 12.3 µM; 1.1% of 360,000 active;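 active = mean replicate inhibition score of at least 50 and every replicate individually at or above 50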;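 note: 0% = plate neutral controls and 100% = maraviroc near 300 nM; one replicate is shown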
The depositor's hits bear a star; [ ] = another dose, or the depositor's remark. This is a subset; the hit share may differ from the screen's.

SMILES	Yeast UUG start	HIV Env fusion
C[C@H](CO)N1C[C@H](C)[C@@H](CN(C)C(=O)Nc2ccc3c(c2)OCO3)OCCCC[C@H](C)Oc2ccc(N(C)C)cc2C1=O	22	-22[16.7 µM]
C[C@@H]1CN([C@@H](C)CO)C(=O)c2cc(C#CC3CCCC3)cnc2O[C@@H]1CN(C)C(=O)C1CCC1	15	-5[16.7 µM]
COc1ccc(CN(C)C[C@H]2OCCCC[C@H](C)Oc3ccc(NC(=O)Nc4ccc5c(c4)OCO5)cc3C(=O)N([C@@H](C)CO)C[C@H]2C)cc1	1	-22[16.7 µM]
Cc1noc(C)c1NC(=O)N(C)C[C@H]1Oc2ccc(NC(=O)Nc3ccccc3)cc2C(=O)N([C@H](C)CO)C[C@H]1C	0	-1[16.7 µM]
CCCC#Cc1ccc2c(c1)O[C@@H](CN(C)C(=O)C1CCC1)[C@@H](C)CN([C@@H](C)CO)S2(=O)=O	4	33[16.7 µM]
COc1cccc(NC(=O)N[C@@H]2C=C[C@@H](CC(=O)N3CCOCC3)O[C@H]2CO)c1	-12	-8[16.7 µM]
C[C@H](CO)N1C[C@H](C)[C@H](CN(C)C(=O)C2CCOCC2)Oc2ncc(C#Cc3ccccc3F)cc2C1=O	2	8[16.7 µM]
C[C@H](CO)N1C[C@H](C)[C@@H](CN(C)S(=O)(=O)c2ccc(F)cc2)Oc2ncc(Br)cc2C1=O	7	-13
C[C@@H]1CN([C@@H](C)CO)C(=O)Cc2cc(NS(=O)(=O)c3ccc(Cl)cc3)ccc2O[C@H]1CN(C)C(=O)Nc1ccc(C(F)(F)F)cc1	6	3[16.7 µM]
CNC[C@@H]1Oc2ccc(NC(=O)CCN3CCOCC3)cc2CC(=O)N([C@H](C)CO)C[C@H]1C	-4	11[16.7 µM]
CN1C(=O)c2cc(NC(=O)Nc3ccccc3F)ccc2OC[C@H]2O[C@H](CC(=O)O)CC[C@@H]21	-3	5[16.7 µM]
CCCC(=O)Nc1ccc2c(c1)C(=O)N(C)C[C@H](OC)[C@H](C)CN[C@H](C)CO2	-13	8[16.7 µM]
C[C@@H]1CN([C@H](C)CO)C(=O)c2cccc(NC(=O)c3ccncc3)c2O[C@@H]1CN(C)C(=O)NC1CCCCC1	-13	5[16.7 µM]
C[C@H](CO)N1C[C@H](C)[C@@H](CN(C)S(=O)(=O)c2ccccc2)Oc2ccc(NC(=O)CCCN(C)C)cc2C1=O	4	-2[16.7 µM]
C[C@H](CO)N1C[C@H](C)[C@@H](CN(C)Cc2ccccc2)Oc2ccc(NC(=O)Nc3ccc(C(F)(F)F)cc3)cc2CC1=O	5	22[16.7 µM]
COC(=O)C[C@@H]1CC[C@H]2[C@H](COc3ccc(NC(=O)c4cccs4)cc3C(=O)N2C)O1	-4	48[16.7 µM]
CN(C)CC(=O)N[C@@H]1C=C[C@@H](CC(=O)NCCN2CCCCC2)O[C@H]1CO	7	-11[16.7 µM]
COc1ccc(S(=O)(=O)Nc2ccc3c(c2)CC(=O)N([C@H](C)CO)C[C@H](C)[C@@H](CN(C)Cc2ccc4c(c2)OCO4)O3)cc1	4	12[16.7 µM]
C[C@@H]1CN([C@H](C)CO)C(=O)c2cc(-c3cccc(F)c3)cnc2O[C@@H]1CN(C)C(=O)C1CCOCC1	-6	-5[16.7 µM]
O=C1N(CCS(=O)(=O)c2ccccc2)Cc2ccccc2C[C@@]12N=C(c1ccc(OCCCO)cc1)O[C@H]2c1ccccc1	11	30[16.7 µM]
COc1ccc(NC(=O)Nc2ccc3c(c2)C(=O)N([C@@H](C)CO)C[C@@H](C)[C@H](CN(C)Cc2ccc(C(F)(F)F)cc2)OCCCC[C@H](C)O3)cc1	20	31[16.7 µM]
C[C@@H]1CCCCO[C@@H](CN(C)C(=O)Nc2ccc3c(c2)OCO3)[C@@H](C)CN([C@H](C)CO)C(=O)c2cc(NS(=O)(=O)c3cn(C)cn3)ccc2O1	-23	-9[16.7 µM]
COc1ccc(NC(=O)Nc2ccc3c(c2)CC(=O)N([C@H](C)CO)C[C@H](C)[C@H](CN(C)CC2CCCCC2)O3)cc1	-4	5[16.7 µM]
COc1ccc(S(=O)(=O)N(C)C[C@@H]2OCCCC[C@@H](C)Oc3ccc(NC(=O)Nc4ccccc4)cc3C(=O)N([C@H](C)CO)C[C@@H]2C)cc1	-20	25[16.7 µM]
C[C@@H]1CN([C@H](C)CO)C(=O)c2cc(NC(=O)c3ccncc3)ccc2O[C@@H](C)CCCCO[C@H]1CN(C)S(=O)(=O)c1ccccc1	-11	-24[16.7 µM]
Cc1noc(C)c1S(=O)(=O)Nc1ccc2c(c1)C(=O)N([C@H](C)CO)C[C@H](C)[C@@H](CN(C)Cc1ccc3c(c1)OCO3)OCCCC[C@H](C)O2	22	-3[16.7 µM]
Cc1ccc(S(=O)(=O)N[C@H]2CC[C@@H](CCNC(=O)Cc3ccccn3)O[C@@H]2CO)cc1	-6	-8[16.7 µM]
CN(C)CC(=O)N[C@H]1CC[C@@H](CC(=O)NCCN2CCCCC2)O[C@@H]1CO	-20	4[16.7 µM]
COc1ccc(S(=O)(=O)N(C)C[C@H]2Oc3ccc(NC(=O)Nc4ccccc4)cc3C(=O)N([C@H](C)CO)C[C@H]2C)cc1	-7	8[16.7 µM]
CCCNC(=O)N(C)C[C@@H]1Oc2cc(C#CC(C)C)ccc2S(=O)(=O)N([C@@H](C)CO)C[C@H]1C	5	-48[16.7 µM]
C[C@H]1CCCCO[C@@H](CN(C)S(=O)(=O)c2cccs2)[C@@H](C)CN([C@@H](C)CO)C(=O)c2cc(NC(=O)NC3CCCCC3)ccc2O1	-12	40[16.7 µM]
C[C@@H]1CN([C@H](C)CO)C(=O)c2cc(-c3ccncc3)cnc2O[C@H]1CN(C)Cc1ccc(F)cc1	1	-9[16.7 µM]
CCC(=O)Nc1ccc2c(c1)OC[C@H](C)N(C(=O)c1ccncc1)C[C@H](C)[C@H](OC)CN(C)C2=O	-9	-2[16.7 µM]
C[C@@H]1CCCCO[C@H](CN(C)Cc2ccc3c(c2)OCO3)[C@@H](C)CN([C@H](C)CO)C(=O)c2cc(NC(=O)CCC(F)(F)F)ccc2O1	-9	-2[16.7 µM]
CC(C)CC#Cc1cnc2c(c1)C(=O)N([C@@H](C)CO)C[C@@H](C)[C@H](CN(C)C(=O)Cc1ccccc1)O2	-1	9[16.7 µM]
CCNC(=O)C[C@@H]1CC[C@H]2[C@@H](COc3ccc(NC(=O)c4cccs4)cc3C(=O)N2C)O1	-23	6[16.7 µM]

Gathered by group: the compounds so far containing a halogen.
SMILES	Yeast UUG start	HIV Env fusion
C[C@H](CO)N1C[C@H](C)[C@H](CN(C)C(=O)C2CCOCC2)Oc2ncc(C#Cc3ccccc3F)cc2C1=O	2	8[16.7 µM]
C[C@H](CO)N1C[C@H](C)[C@@H](CN(C)S(=O)(=O)c2ccc(F)cc2)Oc2ncc(Br)cc2C1=O	7	-13
C[C@@H]1CN([C@@H](C)CO)C(=O)Cc2cc(NS(=O)(=O)c3ccc(Cl)cc3)ccc2O[C@H]1CN(C)C(=O)Nc1ccc(C(F)(F)F)cc1	6	3[16.7 µM]
CN1C(=O)c2cc(NC(=O)Nc3ccccc3F)ccc2OC[C@H]2O[C@H](CC(=O)O)CC[C@@H]21	-3	5[16.7 µM]
C[C@H](CO)N1C[C@H](C)[C@@H](CN(C)Cc2ccccc2)Oc2ccc(NC(=O)Nc3ccc(C(F)(F)F)cc3)cc2CC1=O	5	22[16.7 µM]
C[C@@H]1CN([C@H](C)CO)C(=O)c2cc(-c3cccc(F)c3)cnc2O[C@@H]1CN(C)C(=O)C1CCOCC1	-6	-5[16.7 µM]
COc1ccc(NC(=O)Nc2ccc3c(c2)C(=O)N([C@@H](C)CO)C[C@@H](C)[C@H](CN(C)Cc2ccc(C(F)(F)F)cc2)OCCCC[C@H](C)O3)cc1	20	31[16.7 µM]
C[C@@H]1CN([C@H](C)CO)C(=O)c2cc(-c3ccncc3)cnc2O[C@H]1CN(C)Cc1ccc(F)cc1	1	-9[16.7 µM]
C[C@@H]1CCCCO[C@H](CN(C)Cc2ccc3c(c2)OCO3)[C@@H](C)CN([C@H](C)CO)C(=O)c2cc(NC(=O)CCC(F)(F)F)ccc2O1	-9	-2[16.7 µM]

(more compounds)
SMILES	Yeast UUG start	HIV Env fusion
CCNC(=O)Nc1ccc2c(c1)C(=O)N(C)[C@H]1CC[C@@H](CC(=O)Nc3ccccc3)O[C@H]1CO2	3	-12[16.7 µM]
C[C@H]1CN([C@@H](C)CO)C(=O)c2cc(C#CC3CCCCC3)cnc2O[C@@H]1CN(C)Cc1cncnc1	11	0[16.7 µM]
Cc1ccc(S(=O)(=O)Nc2cccc3c2O[C@H](CN(C)CC2CC2)[C@@H](C)CN([C@@H](C)CO)C3=O)cc1	-6	3[16.7 µM]
CC(C)NC(=O)N(C)C[C@H]1Oc2cc(C#Cc3ccc(F)cc3)ccc2S(=O)(=O)N([C@@H](C)CO)C[C@H]1C	21	8[16.7 µM]
C[C@H]1CN([C@@H](C)CO)C(=O)c2cccc(NS(=O)(=O)c3ccc(F)cc3)c2O[C@H]1CN(C)Cc1ccccc1	2	-6[16.7 µM]
COc1ccc(NC(=O)Nc2ccc3c(c2)C(=O)N([C@H](C)CO)C[C@@H](C)[C@@H](CN(C)S(=O)(=O)c2ccccc2)O3)cc1	-7	0[16.7 µM]
C[C@@H]1CCCCO[C@H](CN(C)Cc2ccncc2)[C@H](C)CN([C@H](C)CO)C(=O)c2cc(NC(=O)C3CCCCC3)ccc2O1	-7	4[16.7 µM]
COc1ccc(NC(=O)N[C@@H]2CC[C@@H](CC(=O)NC3CCCCC3)O[C@H]2CO)cc1	6	13[16.7 µM]
CO[C@H]1CN(C)C(=O)c2ccc(NC(=O)C3CC3)cc2OC[C@@H](C)N(CC2CCOCC2)C[C@@H]1C	5	-8[16.7 µM]
COc1ccccc1C#Cc1cnc2c(c1)C(=O)N([C@@H](C)CO)C[C@H](C)[C@H](CN(C)C(=O)CC1CC1)O2	6	-9[16.7 µM]
CO[C@@H]1CN(C)C(=O)c2ccc(NS(=O)(=O)c3cn(C)cn3)cc2OC[C@H](C)N(C)C[C@@H]1C	-1	-1[16.7 µM]
C[C@H](CO)N1C[C@H](C)[C@H](CN(C)C(=O)c2cccnc2)Oc2cc(-c3cccc(C#N)c3)ccc2S1(=O)=O	-8	2[16.7 µM]
CN1C(=O)c2cc(NC(=O)C3CCCC3)ccc2OC[C@@H]2O[C@@H](CC(=O)NCC3CC3)CC[C@H]21	15	-7[16.7 µM]
C[C@@H]1CN([C@@H](C)CO)C(=O)c2cc(NC(=O)Cc3ccccc3)ccc2O[C@H]1CN(C)C(=O)NC1CCCCC1	19	10[16.7 µM]
CCCNC(=O)[C@@]1(C)c2ccccc2C(=O)N(Cc2ccc(OC(F)(F)F)cc2)[C@H]1c1ccc(CO)cc1	0	-31[16.7 µM]
C[C@@H]1CN([C@@H](C)CO)S(=O)(=O)c2ccc(C#CC3(O)CCCC3)cc2O[C@H]1CN(C)C(=O)c1ccncc1	-4	-23[16.7 µM]
CCCC#Cc1cnc2c(c1)C(=O)N([C@@H](C)CO)C[C@@H](C)[C@H](CN(C)C(=O)c1cccc(F)c1)O2	16	23[16.7 µM]
Cc1ccc(S(=O)(=O)N(C)C[C@H]2Oc3c(NC(=O)c4ccncc4)cccc3C(=O)N([C@@H](C)CO)C[C@@H]2C)cc1	-10	-8[16.7 µM]
CO[C@@H]1CN(C)C(=O)c2ccc(NC(=O)c3ccc(F)cc3)cc2OC[C@H](C)NC[C@@H]1C	-14	0[16.7 µM]
COc1cccc(-c2cnc3c(c2)C(=O)N([C@H](C)CO)C[C@H](C)[C@H](CN(C)Cc2cccc(C(F)(F)F)c2)O3)c1	9	31[16.7 µM]
C[C@@H]1CN([C@H](C)CO)C(=O)c2cccc(N(C)C)c2O[C@@H]1CN(C)Cc1ccc(Oc2ccccc2)cc1	-9	6[16.7 µM]
COc1ccccc1C#Cc1ccc2c(c1)O[C@H](CN(C)C)[C@H](C)CN([C@@H](C)CO)S2(=O)=O	2	-11[16.7 µM]
C[C@H](CO)N1C[C@H](C)[C@H](CN(C)S(=O)(=O)c2ccc(F)cc2)OCCCC[C@H](C)Oc2ccc(NC(=O)CCC(F)(F)F)cc2C1=O	14	-53[16.7 µM]
C[C@@H]1CN([C@@H](C)CO)C(=O)Cc2cc(N(C)C)ccc2O[C@H]1CN(C)S(C)(=O)=O	-6	-3[16.7 µM]
CN1C(=O)c2cc(NC(=O)C3CC3)ccc2OC[C@@H]2O[C@H](CC(=O)NCc3cccc(F)c3)CC[C@@H]21	5	6[16.7 µM]
CC(C)C(=O)Nc1ccc2c(c1)C(=O)N(C)[C@@H]1CC[C@@H](CC(=O)NCc3cccc(F)c3)O[C@H]1CO2	-3	-10[16.7 µM]
C[C@H]1CN([C@@H](C)CO)C(=O)c2cc(-c3cncnc3)cnc2O[C@H]1CN(C)C(=O)Cc1ccccc1	9	-15[16.7 µM]
Cc1noc(C)c1NC(=O)Nc1ccc2c(c1)C(=O)N([C@@H](C)CO)C[C@@H](C)[C@H](CN(C)S(=O)(=O)c1ccccc1)OCCCC[C@H](C)O2	3	-36[16.7 µM]
CC(C)C#Cc1cnc2c(c1)C(=O)N([C@@H](C)CO)C[C@H](C)[C@@H](CN(C)C(=O)Cc1ccncc1)O2	-8	-18[16.7 µM]
CC(C)NC(=O)Nc1ccc2c(c1)C(=O)N([C@H](C)CO)C[C@@H](C)[C@@H](CN(C)C(=O)c1ccccc1)OCCCC[C@H](C)O2	3	-1[16.7 µM]
CO[C@@H]1CN(C)C(=O)c2cc(NC(=O)Nc3cccc(F)c3)ccc2OC[C@@H](C)N(C)C[C@@H]1C	-8	13[16.7 µM]
C[C@@H]1CCCCO[C@H](CN(C)S(=O)(=O)c2cccs2)[C@H](C)CN([C@H](C)CO)C(=O)c2cc(NC(=O)Nc3ccccc3)ccc2O1	-7	8[16.7 µM]
C[C@@H]1CCCCO[C@@H](CN(C)C(=O)Nc2cccc3ccccc23)[C@@H](C)CN([C@@H](C)CO)C(=O)c2cc(NC(=O)C3CCCCC3)ccc2O1	8	-90[16.7 µM]

From PubChem BioAssay
